NPYLR7 ag = activates Aedes aegypti NPYLR7 receptor; HEK293T NPYLR7/Galpha15, GCaMP6s calcium fluorescence; activation, % at 10 µM; actives 0.15% (n = 270,000); AID 1259423; in the data active means activation above about 40%;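 further: 0% = vehicle and 100% = reference agonist at the receptor; some compounds past the cut are filed as inactive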
NPYLR7 ag max-min = further read-out of NPYLR7 ag, marked with its call; activation, %; measured here: Max-Min RFU normalised activation; some inactives read as strong as hits;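 span of the calcium signal over five minutes; 0% = vehicle and 100% = native peptide agonist; compound fluorescence can raise it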
The depositor's hits bear a star.

SMILES	NPYLR7 ag	NPYLR7 ag max-min
O=C(CN(CCN1CCOCC1)C(=O)Nc1ccccc1F)N(Cc1ccc(F)cc1)Cc1cccs1	16	17
COc1ccc(OC)c(S(=O)(=O)N(C)CCCN2c3ccccc3CCc3ccccc32)c1	-10	-16
CC(=O)NCc1ccc(C(=O)Oc2c(C)nn(C)c2C)cc1	4	3
O=C1CN(C(=O)C2CCCC2)CC(O)CN1Cc1cccc(F)c1 (centres undefined)	-10	-2
Fc1ccc(-c2nc3n(c2-c2ccncc2)CCS3)cc1	22	15
CN(C)C(=O)c1ccc(CNC(=O)C23CC4CC(CC(C4)C2)C3)cc1	8	7
CCOc1ccc(N=C2SC(C(=O)Nc3ccc(C)c(Cl)c3)CC(=O)N2C)cc1 (centres undefined)	6	3
CCCCCC1CCC(c2ccc(C(=O)Nc3nnc(SCC)s3)cc2)CC1 (centres undefined)	1	0
Cc1cccc(NC(=O)CSc2nc(=O)n3ccccc3n2)c1	3	-3
COC(=O)c1c(C)c(C(=O)CN(CC2CCCO2)S(=O)(=O)c2ccc(Cl)c([N+](=O)[O-])c2)c(C)n1C (centres undefined)	11	21
CC1CCC2(CC1)OCC(C(=O)NCc1ccco1)N2C(=O)c1ccccc1Cl (centres undefined)	-2	10
COc1ccc(-c2cc(C(=O)N3CCN(c4ccccc4F)CC3)n(-c3cccc([N+](=O)[O-])c3)n2)cc1	15	20
CCC(=O)Nc1ccc(OCC(=O)N2CCCC2Cn2cccn2)cc1 (centres undefined)	0	-2
O=C(Nc1cnccn1)C1CCN(C(=O)Nc2ccc3c(c2)OCCCO3)CC1	0	-3
O=[N+]([O-])C(C(=NCc1ccccc1)NCc1ccccc1)C(Cl)=C(Cl)Cl (centres undefined)	-12	-20
Cc1noc(C)c1CCC(=O)Nc1sc2c(c1C(N)=O)CCCC2	-4	-4
O=C(NC1CCCCC1)c1cccnc1OCC(F)(F)F	-1	0
Cc1ccc(-n2c(O)c(C=C3C=Nc4ccccc43)c(=O)[nH]c2=S)cc1	6	4
C=CCNC(=O)c1ccc(-c2cnc3ccccc3c2)o1	12	8
Nc1cc(-c2cccc(Cl)c2)nn1-c1ccc(C(=O)Nc2cccc(C(F)(F)F)c2)cc1	4	-2

The closing 4 records of the part above come first, to join the parts.
SMILES	NPYLR7 ag	NPYLR7 ag max-min
O=C(NC1CCCCC1)c1cccnc1OCC(F)(F)F	-1	0
Cc1ccc(-n2c(O)c(C=C3C=Nc4ccccc43)c(=O)[nH]c2=S)cc1	6	4
C=CCNC(=O)c1ccc(-c2cnc3ccccc3c2)o1	12	8
Nc1cc(-c2cccc(Cl)c2)nn1-c1ccc(C(=O)Nc2cccc(C(F)(F)F)c2)cc1	4	-2
Cc1ccc(NC(=O)CC(=O)N2CCN3CCCC3C2)c(C)c1 (centres undefined)	20	15
CC(C)c1csc(CN(CCc2ccccc2)CC2CCN(C)CC2)n1	4	1
O=C(O)C1CCN(C(=O)c2cc(F)ccc2Br)CC1	3	2
COC(=O)c1ccc(C(=O)OC)c(NC(=O)CSc2ncnc3sc4c(c23)CCC4)c1	0	6
Cn1c(=O)[nH]c(=O)c2c1nc(SCC(=O)OCc1ccccc1)n2Cc1ccccc1	7	2
O=C(COc1ccccc1)Nc1ccc(Nc2cc(-n3cccn3)ncn2)cc1	-6	-13
COCCOCC(=O)N1CCN(C(c2ccccc2)c2ccc(Br)cc2)CC1 (centres undefined)	12	6
CC(=O)c1cccc(NC(=O)N2CCN(C(c3ccc(F)cc3)c3ccc(F)cc3)CC2)c1	-2	3
CCn1nc(C)c(NC(=O)Nc2cccc(-c3ncc(C)o3)c2)c1C	8	5
Cc1cc(NC(=O)c2ccco2)n(-c2nc3c(c(=O)[nH]2)CCC3)n1	8	0
CCN(CC)S(=O)(=O)c1ccc(NCc2nc(C)c(C)o2)cc1	4	4
CN1C(=O)COCc2c(-c3cccc(O)c3)cccc21	9	2
O=C(COc1cccc(C(F)(F)F)c1)NCCCn1nc(-c2ccncc2)ccc1=O	12	5
CCc1nc(SCC(=O)Nc2ccc(S(=O)(=O)N3CC(C)CC(C)C3)cc2)n[nH]1 (centres undefined)	4	3
Cc1cc(-c2nnc(CCC(=O)N3CCN(C)C(c4ccccc4)C3)o2)no1 (centres undefined)	0	1
Cc1nn(C)c(C)c1C(=O)NC(C)c1ccccc1Cl (centres undefined)	3	1
CCOC(=O)c1ccc2c(c1)nc(SCc1ccc(Cl)cc1F)n2Cc1cccc(F)c1	2	-2
CN(Cc1c(F)cccc1Cl)C(=O)c1cn2ccccc2n1	5	4
CCOC(=O)c1ccc(NC(=O)c2cc3cc(Cl)ccc3oc2=N)cc1	-3	-8
Cc1ccc2cc(CCNC(=O)c3ccccc3)c(=O)[nH]c2c1	1	24

Copied from the results shown, 4 compounds:
SMILES	NPYLR7 ag	NPYLR7 ag max-min
Cc1cc(NC(=O)c2ccco2)n(-c2nc3c(c(=O)[nH]2)CCC3)n1	8	0
CCN(CC)S(=O)(=O)c1ccc(NCc2nc(C)c(C)o2)cc1	4	4
CN1C(=O)COCc2c(-c3cccc(O)c3)cccc21	9	2
O=C(COc1cccc(C(F)(F)F)c1)NCCCn1nc(-c2ccncc2)ccc1=O	12	5

Other records follow:
SMILES	NPYLR7 ag	NPYLR7 ag max-min
O=C1c2cccc3c([N+](=O)[O-])ccc(c23)C(=O)N1c1ccc([N+](=O)[O-])cc1	0	-4
Cn1ncc(Cl)c1C(=O)Nc1ccc(CN2CCCCC2)cc1	0	5
Cn1cc(Cl)c(C(=O)Nc2nc3ccc([N+](=O)[O-])cc3s2)n1	1	-1
N#Cc1ccc(-c2nccc3[nH]nc(-c4ccccc4)c23)cc1	-1	1
COc1ccc(N(CN2C(=O)c3cccc([N+](=O)[O-])c3C2=O)C(C)=O)cc1	-2	-7
Cc1nc(-n2cnnc2)ccc1Br	-9	-14
CCCCn1c(=O)c2ccccc2n2c(SCC(=O)NC(=O)NC3CCCCC3)nnc12	19	11
COc1ccc(C(=O)N2C[C@H]3CC=CC[C@H]3C2)c(O)c1	6	3
COc1ccc(-c2ccc3c(n2)sc2c(=O)[nH]c(=O)[nH]c23)cc1OC	-4	-11
COc1ccc2nc(-c3ccc(OC)c(NC(=O)CC4CCCCC4)c3)cn2n1	-6	-11
Cc1ccc2nc(SCc3ccccc3Cl)nc(=O)n2c1	4	-1
O=C(COc1ccccc1)Nc1ccc(N2CCC(Cc3ccccc3)CC2)c(C(=O)NCc2ccc(F)cc2)c1	2	16
Cc1nn(-c2ccccc2)c(C)c1/C=N\NC(=O)CSc1nc2ccccc2[nH]1	0	5
C/C=C(/OC)C(=O)N1CCC(n2c(C)nc3ccc(C)cc32)CC1	-3	9
Cc1cc(C(=O)N(Cc2cccnc2)c2nc3c(C)c(Cl)ccc3s2)on1	4	4
O=C(CSc1nnc(CNC(=O)c2cccs2)n1-c1ccc(Cl)c(Cl)c1)Nc1ccccc1C(F)(F)F	-7	-5
CCOC(=O)C12C(=O)OC(C)(C)C1C2(CC)C(=O)c1ccc(-c2ccccc2)cc1 (centres undefined)	17	14
CCCc1cnc2c(c1SCc1cccnc1)c(=O)n(C)c(=O)n2C	-7	-7
CCOc1ccc(-c2cc3c(=O)n(CC(=O)NC4CCCC4)ccn3n2)cc1	2	0
COc1ccc(-c2ccccc2OC(C)C(N)=O)c2ccc(C)nc12 (centres undefined)	6	2

Single records (already shown):
O=C1c2cccc3c([N+](=O)[O-])ccc(c23)C(=O)N1c1ccc([N+](=O)[O-])cc1 in the list: NPYLR7 ag: 0; NPYLR7 ag max-min: -4
CCCc1cnc2c(c1SCc1cccnc1)c(=O)n(C)c(=O)n2C in the list: NPYLR7 ag: -7; NPYLR7 ag max-min: -7
COc1ccc(N(CN2C(=O)c3cccc([N+](=O)[O-])c3C2=O)C(C)=O)cc1 in the list: NPYLR7 ag: -2; NPYLR7 ag max-min: -7

Next part:
SMILES	NPYLR7 ag	NPYLR7 ag max-min
COc1cc(-c2cncc(N3CCN(CCO)CC3)n2)cc(OC)c1OC	-9	-11
Cc1ccccc1C1c2ccsc2CCN1C(=O)c1ccccc1Cl (centres undefined)	-4	4
Cc1cc(O)c(-c2n[nH]c3c2C(c2ccc(Cl)cc2)N(CCCO)C3=O)cc1C (centres undefined)	-10	-17
CCc1nc2c(Oc3nc4ccccc4s3)cccn2c1N(C)C(=O)c1ccc(OC)cc1	-3	-4
CCC(C)N(Cc1cccc(Cl)c1)C(=O)c1ccc(C)c(N2CCNC2=O)c1 (centres undefined)	2	-1
CCC(C)C(=O)N1CCN(c2cc(S(=O)(=O)N3CCOCC3)ccc2OC)CC1 (centres undefined)	1	-1
COCc1cc(N2CCN(C/C=C/c3ccccc3)CC2)nc(SCc2cccc(C(=O)NCC3CCCO3)c2)n1 (centres undefined)	3	1
Cc1ccc(-c2csc(-n3nc(C)cc3NC(=O)C3CC(=O)N(c4ccccc4)C3)n2)cc1 (centres undefined)	-10	-16
O=C(O)c1ccc(CSc2nnc(-c3ccccc3[N+](=O)[O-])n2Cc2ccccc2)cc1	-2	-7
CCN(CC)C(=O)NCc1c(C)cc(C)cc1C	6	3
CC(Cc1ccc(Br)cc1)NC(=O)c1ccoc1 (centres undefined)	1	0
CC1CC(C)CN(c2nc3c(c(=O)[nH]c(=O)n3C)n2Cc2ccccc2F)C1 (centres undefined)	18	11
O=C(CC1(c2ccccc2Cl)CC(=O)N(C2CCCC2)C1=O)N1CCCCC1c1cccnc1 (centres undefined)	11	2
N=S(NS(=O)(=O)c1ccccc1)c1ccc([N+](=O)[O-])cc1 (centres undefined)	-4	-4
C[C@H]1[C@@H]2[C@@H](O)C([C@H](C)C(=O)NCc3cc(F)cc(F)c3)CC[C@@]2(C)CC[C@@H]1NC(=O)c1cnccn1 (some centres undefined)	-9	-16
O=C(O)c1ccc(N2C(=O)C3C(C2=O)C2C=CC3C23CC3)cc1 (centres undefined)	1	-3
Cc1nc(CN(C)CC(=O)NCc2cccnc2)nc2ccccc12	2	0
COc1ccc(CN(C)c2c(C)nc3c(OCc4cccc(Cl)c4)cccn23)cc1	-10	-10
O=C(CCc1nc2ccccc2s1)NC1CCCN(C2Cc3ccccc3C2)C1 (centres undefined)	-2	-4
C=CCN(CC(=O)N(Cc1ccc(F)cc1)Cc1ccc(C)s1)C(=O)Nc1cccc(F)c1	-2	2
CN(C)S(=O)(=O)c1ccc(=O)n(CCOc2c(Cl)cccc2Cl)c1	10	7
CCOCCCn1c(C)cn2c3c(=O)n(CCc4ccccc4)c(=O)n(C)c3nc12	2	0
CC(C)C(=O)NCCc1nc2ccccc2n1C(C)c1ccccc1 (centres undefined)	1	-6
Cc1nn(CCC(=O)NCC2(O)CCCNCC2)c(C)c1C (centres undefined)	18	16
COC(=O)c1ccc(OC)c(CN2C(=O)N(c3ccccc3C)S(=O)(=O)c3ccccc32)c1	-6	-5
CS(=O)(=O)c1ccc(CC(=O)N(Cc2ccccn2)c2nc3c(F)cccc3s2)cc1	10	8
CCCc1nc(N2CCN(C(=O)Nc3ccc(F)cc3F)CC2)c2c(-c3ccccc3)noc2n1	17	10
CN1CCN(CCCNC(=O)c2cc(-c3ccco3)[nH]n2)CC1	2	3
COc1cccc(CN2CCCC(N(C)Cc3ccccc3)C2)c1OC (centres undefined)	6	3
Cc1nc(C)c(Cc2c(F)cccc2Cl)c(N2CCN(C(=O)c3ccc(F)cc3)CC2)n1	7	9
CCN1CCN(c2nc3nonc3nc2NC2CCCC2)[C@@H](C)C1=O	7	4
Cc1cc(C(=O)NC(C)c2nnc3n2CCNCC3)c2ccc(F)cc2n1 (centres undefined)	12	8
O=C1CCN(CC(O)COCc2ccco2)c2cc3c(cc2CN1CC1CC1)OCO3 (centres undefined)	-4	9
Cc1nc2scc(C)n2c1C=Cc1nc2ccccc2s1	10	7
Cc1cn2c3c(=O)n(Cc4ccc(F)cc4)c(=O)n(C)c3nc2n1CCOCCO	-6	-8
O=C(NCCc1ccccc1)N1CCCC2(C1)NCCc1c2[nH]c2ccccc12 (centres undefined)	0	1
CNC(=S)NN=CC1=CCC2CC1C2(C)C (centres undefined)	-1	-1
Cc1cc(C)cc(NC(=O)CSc2nc(=O)n(CCCN3CCOCC3)c3c2CCCC3)c1	-2	0
CCOC(=O)C1=NN(C(C)=O)C(C(=O)c2ccccc2)C1c1ccccc1 (centres undefined)	2	2
CN1CCN(c2c(S(=O)(=O)c3ccccc3)cnc3cc4c(cc23)OCCO4)CC1	6	6
O=C(c1ccccc1)N1CCC(N2CC[C@@H](c3ccc(F)cc3)[C@H](O)C2)CC1	1	-2
COC1(OC)N=C(N)C2(C#N)C(c3ccc4c(c3)OCO4)C12C#N (centres undefined)	-1	-5
COc1ccc2oc(=O)c(-c3nnc(Nc4ccccc4F)s3)cc2c1	-10	-10
Cc1cc(C=C(C#N)C(=O)O)c(C)n1C1CC1	7	2
Cc1ccc(C2=N/C(=C\c3ccc(N(C)C)cc3)C(=O)O2)cc1C	-5	-8
CC1CN(S(=O)(=O)c2cccc3nsnc23)CC(C)O1 (centres undefined)	1	0
COc1cc(C2C(C(=O)OC(C)C)=C(C)NC3=C2C(=O)CC(c2ccccc2)C3)ccc1O (centres undefined)	5	4
CCc1nc2ccc(C(=O)NCCCn3ccnc3)cn2c1N(C)C(=O)c1cccc(OC)c1	1	24
O=C(NC(c1ccc(F)cc1)c1cnccn1)C1CCN(CCOc2ccc(Cl)cc2)CC1 (centres undefined)	-1	-7
Cc1c(C)c(C(=O)N2CCOCC2)n(Cc2ccccc2F)c1C	21	26
CC(NC(=S)Nc1cccnc1)C1CC2CCC1C2 (centres undefined)	10	6
O=C(c1ccc2[nH]ccc2c1)N1CCCC(Nc2ccc(F)c(F)c2)C1 (centres undefined)	0	-1

Only part of the results is shown (hit frequency here may not be typical).
